# VDR inh: vitamin D3 receptor (human) inhibition; P11473; VDR-SRC2-3 peptide fluorescence polarization, 2 h; Potency, µM, without a hit: max response, negative = inhibition, hits mostly inhibitors; hit rate 0.93% among 400,000; active = well fitted inhibition curve with a large enough effect; inconclusive = small, poorly fitted or top-dose-only effect, or another doubt; inactive = no such curve, though single readings can be large or run the other way; note: series mostly up to about 120 µM
# Target sequence (P11473 whole entry, looked up): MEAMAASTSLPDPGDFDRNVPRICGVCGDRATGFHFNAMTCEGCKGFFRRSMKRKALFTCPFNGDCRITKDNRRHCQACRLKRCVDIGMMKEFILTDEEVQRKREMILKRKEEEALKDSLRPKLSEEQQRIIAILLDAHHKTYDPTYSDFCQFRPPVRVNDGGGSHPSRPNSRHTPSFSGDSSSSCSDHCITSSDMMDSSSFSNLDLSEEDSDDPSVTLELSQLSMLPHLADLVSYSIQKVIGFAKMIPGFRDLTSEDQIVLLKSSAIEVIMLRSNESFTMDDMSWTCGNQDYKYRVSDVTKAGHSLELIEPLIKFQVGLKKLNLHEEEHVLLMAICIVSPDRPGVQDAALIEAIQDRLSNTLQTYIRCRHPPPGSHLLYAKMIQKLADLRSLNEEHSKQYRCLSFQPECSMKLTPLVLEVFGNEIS
#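 Measured by FP: displacement of SRC2-3 coactivator peptide from VDR by library compounds, following a two-hour ambient incubation.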
# Active calls of the source: *; ? = inconclusive; [ ] = remark or other dose. % is set by controls: 0 for no effect and ±100 for the full control effect; potency is the fitted concentration of half-maximal effect.
CCCCN(C(=O)C1=COCCO1)c1c(N)n(CCC)c(=O)[nH]c1=O
  VDR inh: -6%

O=C(NC1CCCCCC1)C1c2ccccc2C(=O)N1CCCN1CCOCC1 (centres undefined)
  VDR inh: 20%

CC(NC(=O)CCC(=O)NC(C)c1ccccc1)c1ccccc1 (centres undefined)
  VDR inh: -8%

CCC(=O)Nc1ccc2nc(SCC(=O)N3CCc4ccccc43)sc2c1
  VDR inh: 13%

O=[N+]([O-])c1cccc(-c2nc(-c3ccccc3)c(-c3cccs3)[nH]2)c1
  VDR inh: -19%

O=C(c1ccc2c(=O)n(CCc3ccccc3)c(=O)[nH]c2c1)N1CCN(c2ccccc2)CC1
  VDR inh: 10%

O=C(CCS(=O)(=O)c1cc2c3c(c1)CCN3C(=O)CC2)Nc1cccc(Br)c1
  VDR inh: 12%

Cc1ccc(OCC(=O)N(C)CC(=O)Nc2ccc(F)c(F)c2F)cc1
  VDR inh: -17%

O=C(CC12CC3CC(CC(C3)C1)C2)N/N=C/c1ccc([N+](=O)[O-])o1
  VDR inh: 4%

COc1ccc(/C=N\NC(=O)c2ccccc2Cl)cc1COc1c(F)c(F)c(F)c(F)c1F
  VDR inh: -4%

Cc1ccc(S(=O)(=O)CCC(=O)N2CCN(c3nc4c(C)c(C)ccc4s3)CC2)cc1
  VDR inh: 22%

Cc1nc(NCCc2ccccc2)c2nnn(Cc3ccccc3)c2n1
  VDR inh: 10%

CCOC(=O)C1=C(c2ccccc2)Nc2ncnn2C1c1ccccn1 (centres undefined)
  VDR inh: 2%

COc1cc2c(cc1NC(=O)c1ccncc1)oc1ccccc12
  VDR inh: 7%

COc1cccc(NC(=S)N2CCC(c3ccc(C)cc3)C2)c1 (centres undefined)
  VDR inh: 5%

COCCCNC(=O)c1ccc(Cn2c(SCc3cccc(C)c3)nc3cccnc32)cc1
  VDR inh: 4%

CCn1cc(Br)c(C(=O)Nc2ccc(C(=O)OC(C)C)cc2)n1
  VDR inh: -15%

Cc1cc(Cl)ccc1OCC(=O)NC1CCCC1
  VDR inh: 7%

O=C(c1ccc(C#CC2(O)CCCCC2)cc1)N1CCOCC1
  VDR inh: 8%

O=C(CSCc1ccc(Cl)cc1)Nc1nccs1
  VDR inh: 2%

O=C(NCCc1ccc(Cl)cc1)Nc1cccc(Cl)c1
  VDR inh: -1%

Cc1ccc(C)c(NC(=S)NNC(=O)c2csc(C)c2)c1
  VDR inh: -10%

COc1ccc(-c2cc(C(F)(F)F)nc(SCC(=O)NCc3ccc(OC)c(OC)c3)n2)cc1
  VDR inh: -3%

CC(=O)N1c2ccc(S(=O)(=O)N(C)CC(=O)N(Cc3ccccc3)C(C)C)cc2CC1C (centres undefined)
  VDR inh: 5%

COC(=O)c1ccccc1NC(=O)c1cc2c(-c3ccc(OC)c(OC)c3)nn(C)c2s1
  VDR inh: -13%

# 3 compounds already listed, ordered by formula weight, high to low.
COC(=O)c1ccccc1NC(=O)c1cc2c(-c3ccc(OC)c(OC)c3)nn(C)c2s1
  VDR inh: -13%

O=[N+]([O-])c1cccc(-c2nc(-c3ccccc3)c(-c3cccs3)[nH]2)c1
  VDR inh: -19%

Cc1ccc(C)c(NC(=S)NNC(=O)c2csc(C)c2)c1
  VDR inh: -10%

# (more compounds)
Cc1cc(C)cc(C(=O)NN2CCN(C)CC2)c1
  VDR inh: ?

Cc1c(C#N)c(N=CN(C)C)c(C(=O)c2ccccc2)n1-c1ccc(Br)cc1
  VDR inh: 3%

O=C(NCc1ccccn1)c1ccc(OC2CCN(Cc3ccccc3)CC2)cc1
  VDR inh: -3%

COc1ccc(S(=O)(=O)N(CC(=O)O)c2ccccn2)cc1
  VDR inh: 12%

COc1ccc(CCN(Cc2nc(-c3ccccc3)no2)Cc2nc(-c3ccccc3)no2)cc1OC
  VDR inh: -13%

COc1ccccc1N1CCN(C(=O)c2ccc(CS(=O)c3ccccc3C)o2)CC1 (centres undefined)
  VDR inh: 2%

CCCCN(C(=O)COC(=O)c1nc2nccc(C)n2n1)C1CCS(=O)(=O)C1 (centres undefined)
  VDR inh: 9%

N#Cc1ccc(Oc2cnccn2)cc1
  VDR inh: -5%

CCOC(=O)c1nn(-c2cccc(Cl)c2)c2nc(CC(C)C)c(C#N)c(=O)n12
  VDR inh: -16%

O=C1C(NS(=O)(=O)c2cccs2)=C(N2CCN(c3ccccc3)CC2)C(=O)c2ccccc21
  VDR inh: 11%

Cc1ccc(S(=O)(=O)N2CCN(C(=O)CC(C)n3cncn3)CC2)cc1C (centres undefined)
  VDR inh: 3%

Cn1c(=O)oc2cc(S(=O)(=O)N3CCN(C(=O)c4ccco4)CC3)ccc21
  VDR inh: 0%

COCC(C)n1c(SCc2cc(=O)n3cc(C)ccc3n2)nc2ccccc2c1=O (centres undefined)
  VDR inh: 5%

O=C1/C(=C\c2cccs2)CCC/C1=C/c1cccs1
  VDR inh: 40µM*

CCCCN(Cc1ccco1)S(=O)(=O)c1ccc(-c2ccc(=O)[nH]n2)s1
  VDR inh: -16%

Nc1nn(S(=O)(=O)c2cccc3nsnc23)cc1-c1ccc(Br)cc1
  VDR inh: 11%

O=C(NC1CCCC1)c1nc2c(nnn2Cc2ccccc2Cl)c(=O)[nH]1
  VDR inh: 0%

CCOc1ccccc1N1CCN(S(=O)(=O)c2ccc(C3CCCCC3)cc2)CC1
  VDR inh: -14%

COc1ccc(S(=O)(=O)Nc2cccc3cccnc23)c([N+](=O)[O-])c1
  VDR inh: -2%

CC(C)(C)[C@@H]1C=C(C(=O)N2CCOCC2)O[C@H](OCc2ccc(CO)cc2)C1
  VDR inh: 5%

Cc1ccc2[nH]c(=O)c3cc(C(=O)N4CCN(c5ccccc5)CC4)sc3c2c1
  VDR inh: -10%

Cn1c(CCCNC(=O)c2ccccc2)nc2ccccc21
  VDR inh: 0%

CC(C(=O)OCC(=O)c1c(N)n(C)c(=O)n(C)c1=O)N1C(=O)c2ccccc2C1=O (centres undefined)
  VDR inh: -10%

O=c1oc2ccccc2c(Nc2ccc(Cl)cc2)c1[N+](=O)[O-]
  VDR inh: -5%

O=C(Nc1ccccc1)N1CCCC2CCCCC21 (centres undefined)
  VDR inh: 5%

CCOC(=O)C1CCCN(C(=S)Nc2ccc(Nc3ccccc3)cc2)C1 (centres undefined)
  VDR inh: -9%

O=C(NC1CC(=O)N(c2ccc3c(c2)OCCO3)C1)c1c(F)cccc1Cl (centres undefined)
  VDR inh: 7%

COc1ccc(/C=C/C(=O)Oc2ccc(C=O)cc2OC)cc1
  VDR inh: 0%

CC(C)Sc1nc2sc(-c3ccccc3)cc2c(=O)n1N
  VDR inh: 1%

CCn1c(SC(C)C(=O)Nc2nnc(C)s2)nnc1-c1ccco1 (centres undefined)
  VDR inh: 1%

Cc1ccc(COC(=O)c2ccc3c(c2)C(=O)N(CCCN2CCOCC2)C3=O)cc1
  VDR inh: -16%

O=C(CCc1ccccc1)N1CCc2c([nH]c3ccccc23)C1c1ccc(F)cc1 (centres undefined)
  VDR inh: -8%

COc1cc2[nH]c(=S)nc(NCCCOC(C)C)c2cc1OC
  VDR inh: -5%

O=C1CSC(c2c(F)cccc2Cl)N1c1cccc(F)c1 (centres undefined)
  VDR inh: 1%

CCOC(=O)CN1C(=O)COc2ccc(Cl)cc21
  VDR inh: 19%

COc1ccccc1NC(=O)CC(c1cc(OC)c(OC)c(OC)c1)N1Cc2ccccc2C1=O (centres undefined)
  VDR inh: 6%

Cc1nc(C)c(C(=O)OCC(=O)Nc2cccc(C)c2C)s1
  VDR inh: -4%

NC(=O)c1cc(S(=O)(=O)Nc2cccc(Cl)c2)cs1
  VDR inh: -21%

CCOC(=O)NC(=O)/C(C#N)=N\Nc1cccc(Cl)c1
  VDR inh: -9%

CCCc1cc(=O)[nH]c2nnc(SCC(=O)Nc3cc(C)on3)n12
  VDR inh: 16%

COc1cccc(-c2csc(N3CCN(S(=O)(=O)c4ccc(F)cc4)CC3)n2)c1
  VDR inh: 12%

CCSC(=S)Nc1c(C)n(C)n(-c2ccccc2)c1=O
  VDR inh: -9%

CCN(CC(=O)Nc1c(F)cccc1F)C(=O)c1ccc2c(=O)n3c(nc2c1)CCC3
  VDR inh: -14%

NC(N)=NS(=O)(=O)c1ccc(N=C2C(=O)Nc3ccccc32)cc1
  VDR inh: -16%

Cc1c(C(=O)N(Cc2ccccc2)C(C)C)cnn1-c1ccccc1
  VDR inh: -8%

N#CC(C(=O)NCCc1ccccc1)c1nc2ccccc2nc1N1CCOCC1 (centres undefined)
  VDR inh: -6%

COc1cccc2cc(C(=O)NCCN3CCOCC3)c(=O)oc12
  VDR inh: -13%

CC(=O)N1CCC(C(=O)NC2CC(C)(C)Cc3c2cnn3-c2ccc(F)cc2)CC1 (centres undefined)
  VDR inh: 4%

Cn1c(=O)c(-c2ccc(Cl)cc2)nc2cnc(N3CCNCC3)nc21
  VDR inh: ?

Cc1ccc(OCc2nnc(NC(=O)c3cccnc3)s2)cc1
  VDR inh: -9%

# Rewritten with the structure last: entries from further up.
VDR inh	compound
-21%	NC(=O)c1cc(S(=O)(=O)Nc2cccc(Cl)c2)cs1
-9%	CCOC(=O)NC(=O)/C(C#N)=N\Nc1cccc(Cl)c1
16%	CCCc1cc(=O)[nH]c2nnc(SCC(=O)Nc3cc(C)on3)n12
12%	COc1cccc(-c2csc(N3CCN(S(=O)(=O)c4ccc(F)cc4)CC3)n2)c1

# Remaining list, next part.
SMILES	VDR inh
CCOc1ccc(OCCC(=O)OCC(=O)N2CCN(c3ccc(OC)cc3)CC2)cc1	3%
Cc1ccc2oc(=O)c3cnn(CC(=O)N4CCc5ccccc5C4)c3c2c1	5%
O=C(O)c1cccc2c1C(=O)c1ccc(Cl)cc1S2(=O)=O	-15%
NNc1nc2c(F)cccc2s1	5%
COC(=O)/C=C1/N/C(=N\c2nc(C)cc(C)n2)N(c2ccc(C)c(C)c2)C1=O	-15%
COc1cccc(NC(=O)c2cnc(SC)nc2)c1	-4%
Cc1ccc(CNC(=O)COc2ccc(S(=O)(=O)N3CCCC3)cc2)cc1	2%
CC(=N\NC(=O)c1ccc([N+](=O)[O-])cc1)/C(=N/O)C(=O)Nc1ccccc1	-9%
COCCCn1c(SCC(=O)Nc2ccccc2F)nnc1-c1ccoc1C	4%
Cc1cc(C)nc(N2CCC(C(=O)Nc3ccc4c(c3)OCCO4)CC2)n1	0%
Cc1cc(=O)oc(C)c1C(=O)OC(C(=O)c1ccccc1)c1ccccc1 (centres undefined)	1%
COC(=O)c1c(C)[nH]c(C(=O)COc2ccc3ccc(=O)oc3c2)c1C	40%[activator]
Cc1ccc(C)c(N2CCN(CCCNC(=O)CCn3c(=O)c4cccn4c4cccnc43)CC2)c1	-4%
CCOC(=O)CCCCCC(=O)Nc1ccc2c(c1)C(=O)N([C@H](C)CO)C[C@H](C)[C@@H](CN(C)C(=O)Nc1ccc(OC)cc1)O2	3%
Clc1ccc2c(c1)C(N1CCNCC1)Cc1ccccc1S2 (centres undefined)	-9%
COc1ccc(NS(=O)(=O)c2c(F)cccc2F)cc1S(=O)(=O)N1CCOCC1	-8%
COC(=O)C1CCN(C(=O)c2cc(-c3ccco3)nc3ccccc23)CC1	-12%
Cc1cc(F)ccc1NC(=O)CCn1nc(C)c(S(=O)(=O)N2CCCCC2)c1C	1%
COc1ccc(NCc2cc3ccc(OC)cc3n(CC(=O)Nc3cccc(OC)c3)c2=O)cc1	3%
C[C@@H](CN1CCC[C@H]1CN1C(N)=NC[C@@H]1Cc1ccccc1)N1C[C@@H](Cc2ccccc2)N(CCCC2CCCC2)C1=N	1%
O=C(CCCCCn1c(=S)[nH]c2ccsc2c1=O)NC1CCCCC1	5%
CN=c1scc(-c2cccs2)n1/N=C/c1ccccc1O	-16%
C=C(C)CC(NCc1ccco1)c1ccc(OC)cc1 (centres undefined)	23%
Cc1cc(-c2ccccc2)oc(=O)c1NC(=O)c1ccccc1	-15%
CCOc1ccc(CNC(=O)c2cnc3sc(N4CCOCC4)nn3c2=O)cc1	-6%

# 4 compounds from above, sorted by the number in VDR inh, largest number first.
SMILES,VDR inh
CCOC(=O)CN1C(=O)COc2ccc(Cl)cc21,19%
NNc1nc2c(F)cccc2s1,5%
Cc1ccc(CNC(=O)COc2ccc(S(=O)(=O)N3CCCC3)cc2)cc1,2%
CCn1c(SC(C)C(=O)Nc2nnc(C)s2)nnc1-c1ccco1 (centres undefined),1%

# The results go on.
SMILES	VDR inh
CCN(CC(=O)Nc1ccc(OC)cc1)C(=O)Cc1cccs1	6%
CC(C)(C)C1=Nn2c(nnc2C2CCCCC2)SC1	-8%
CCn1c(C)nc2cc(C(=O)NNC(=O)Nc3ccc(Cl)cc3)ccc21	-20%
O=C(Nc1ccccn1)c1sc2cccc(F)c2c1Cl	-10%
COC(=O)c1sccc1NC(=O)CSc1cc(Cl)ccc1Cl	16%
CCO/C=C1/C(=O)N(C)C(=O)c2cc(OC)ccc21	-1%
CCOc1ccc(S(=O)(=O)N/N=C(\C)Cc2ccc(OC)cc2)cc1	-4%
O=C(Nc1ccccc1)Nc1cc(OCC(F)(F)F)cc(OCC(F)(F)F)c1	3%
O=C(Nc1c(F)cc(F)cc1Br)c1cc(-c2ccc(O)cc2)on1	-2%
Cc1c(C(C)O)nnn1-c1nonc1N (centres undefined)	13%
COc1cc(OC)c(OC)cc1CNC1CCCCCC1	1%
C=CC[C@@H](CC(=O)N[C@@H](CO)Cc1ccccc1)C(=O)N[C@@H](COC(=O)[C@@H](CC=C)Cc1ccc(F)cc1)Cc1ccccc1	-14%
COc1ccc(S(=O)(=O)N2CCOCC2)cc1NC(=O)Cc1sc(C)nc1-c1ccc(F)cc1	0%
NC(=O)[C@H]1CC2(CC(c3cccc(NC(=O)[C@H]4CCC(=O)N4)c3)=NO2)CN1C(=O)CC(c1ccccc1)c1ccccc1 (some centres undefined)	-4%
CC1(C)O[C@@H]2[C@H](O1)[C@@H](CO)O[C@H]2n1c(N2CCCCC2)nc2c(N)ncnc21	-22%
Cc1nc(N2CCN(c3ccccc3)CC2)[nH]c(=O)c1Cc1ccccc1	-2%
Fc1ccc(-c2csc(Nc3ccccn3)n2)cc1	6%
CCOC(=O)c1cnc(-n2cc(C)cn2)nc1Nc1ccccc1OC	-6%
COc1ccccc1N1CCN(/N=C/c2ccc(C(=O)O)cc2)CC1	-11%
COc1ccc(/C=N/Nc2ncnc3sc4c(c23)CCCC4)cc1O	-13%

# Compound activity deposited in PubChem by National Center for Advancing Translational Sciences (NCATS).

# A portion of the library; the hit share may differ from the screen's.
